Vaccinia inh = Vaccinia orthopox stage-specific inhibition; Vaccinia-infected cells, mCherry/Venus stage reporter fluorescence; active compounds read low; some inactives read as strong as hits; activity change (mCherry), % (concentration not given with the values); actives 0.01% (n = 89,000);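 active = mCherry past -33% and 40 or more points under the early reporter, replicates agreeing; inconclusive = past -33% without that gap or agreement; tested in A549 cells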;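 note: scaled between vehicle wells and reference inhibitor wells; 23 nL library stock went into each well; one replicate is shown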
Vaccinia inh Venus = second read-out of Vaccinia inh, no call of its own (marks repeat the call); activity change (Venus), %; measured here: Venus reporter, other viral stage;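 negative = less Venus signal; first of two replicates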
Active calls of the source: *; ? = inconclusive; . = not tested or not shown; & = joins results of further samples. Some of the compounds tested (hit frequency here may not be typical).

The line under a structure holds: Vaccinia inh | Vaccinia inh Venus
1	C[C@H]1CN([C@@H](C)CO)C(=O)CCCn2cc(nn2)CO[C@@H]1CN(C)C(=O)NC1CCCC1
→ 5.7 | 3.7
2	CC(C)CC#Cc1ccc2c(c1)O[C@H](CN(C)C(=O)CN(C)C)[C@@H](C)CN([C@@H](C)CO)S2(=O)=O
→ ? | .
3	Cc1noc(C)c1NC(=O)Nc1ccc2c(c1)CC(=O)N([C@@H](C)CO)C[C@@H](C)[C@@H](CN(C)S(=O)(=O)c1ccc(F)cc1)O2
→ 22.8 | 12.2
4	Cc1noc(C)c1NC(=O)N(C)C[C@@H]1Oc2c(NC(=O)C3CCOCC3)cccc2C(=O)N([C@@H](C)CO)C[C@H]1C
→ 9.4 | -1.3
5	Cc1noc(C)c1S(=O)(=O)Nc1cccc2c1O[C@H](CN(C)C(=O)Nc1ccc3c(c1)OCO3)[C@H](C)CN([C@@H](C)CO)C2=O
→ -0.6 | -1.9
6	Cc1cccc(S(=O)(=O)N2C[C@H](O)COC[C@H]3O[C@H](CC(=O)NCCCN4CCOCC4)CC[C@@H]32)c1
→ 4.9 | 3.0
7	CCCNC(=O)N1C[C@H](C)[C@@H](OC)CN(C)C(=O)c2ccc(NC(=O)CC)cc2OC[C@H]1C
→ 9.8 | 10.7
8	C[C@H]1CN([C@@H](C)CO)C(=O)c2cc(C#Cc3cccc(F)c3)cnc2O[C@@H]1CN(C)C(=O)C1CCCCC1
→ ? | .
9	COCC(=O)N1C[C@@H](C)[C@@H](OC)CN(C)C(=O)c2ccc(NC(=O)Nc3ccccc3)cc2OC[C@H]1C
→ 24.4 | 16.1
10	COc1ccc(S(=O)(=O)Nc2ccc3c(c2)CC(=O)N([C@H](C)CO)C[C@@H](C)[C@@H](CN(C)Cc2ccncc2)O3)cc1
→ 10.6 | 4.8
11	COc1ccc(-c2ccc(C3[C@H]4CNC[C@@H]3N4C(=O)Nc3ccc(C(F)(F)F)cc3)cc2)cc1 (stereo partly specified)
→ -2.5&-9.4 | -2.3&-6.7
12	CN(C)CC(=O)N[C@@H]1CC[C@H](CCNC(=O)C2CCC2)O[C@H]1CO
→ 3.5 | 10.9
13	C[C@@H]1CN([C@@H](C)CO)C(=O)c2cc(NS(=O)(=O)c3ccc(Cl)cc3)ccc2O[C@@H](C)CCCCO[C@H]1CN(C)S(=O)(=O)c1ccccc1
→ -24.3 | -19.2
14	COCC(=O)NC[C@@H]1[C@@H](c2ccccc2)[C@H](CO)N1C(C)=O
→ 16.9 | 17.6
15	O=C(Nc1ccccc1)N1CCCCN2[C@H](CO)[C@H](c3ccc(C#Cc4cccnc4)cc3)[C@@H]2C1
→ -15.2 | -16.3
16	CNC[C@H]1Oc2ccc(N(C)C)cc2CC(=O)N([C@@H](C)CO)C[C@@H]1C
→ -5.0 | -1.6
17	C[C@@H]1CN([C@@H](C)CO)C(=O)c2cccc(NC(=O)Nc3ccccc3)c2O[C@@H]1CN(C)CC1CCCCC1
→ -0.7 | 8.6
18	C[C@H](CO)N1C[C@H](C)[C@H](CN(C)C(=O)NC2CCCCC2)Oc2c(NS(=O)(=O)c3ccccc3)cccc2C1=O
→ -10.0 | -7.8
19	Cc1noc(C)c1NC(=O)Nc1ccc2c(c1)C(=O)N([C@H](C)CO)C[C@@H](C)[C@H](CN(C)Cc1ccccc1)OCCCC[C@H](C)O2
→ 20.7 | 9.7
20	C[C@H]1CN([C@@H](C)CO)C(=O)c2cc(C#CCc3ccccc3)cnc2O[C@@H]1CN(C)C(=O)C1CC1
→ 16.3 | 6.7
21	COCC(=O)N(C)C[C@@H]1Oc2ncc(C#C[C@@H](C)O)cc2C(=O)N([C@@H](C)CO)C[C@H]1C
→ 7.4 | 2.0
22	C[C@H](CO)N1C[C@H](C)[C@@H](CN(C)S(=O)(=O)c2ccc(Cl)cc2)OCCCC[C@H](C)Oc2ccc(NS(=O)(=O)c3ccc(F)cc3)cc2C1=O
→ -23.4 | -4.8
23	C[C@H]1CN([C@@H](C)CO)C(=O)c2cc(-c3cccc(C(=O)N(C)C)c3)cnc2O[C@H]1CN(C)S(=O)(=O)c1cccc(F)c1
→ 0.2 | -1.0
24	O=C(C1CCCCC1)N1CC2(C1)[C@@H](c1ccccc1)[C@@H](CO)N2Cc1ccc(Cl)cc1
→ -32.3 | -23.5
25	CO[C@H]1CN(C)C(=O)c2cc(NC(C)=O)ccc2OC[C@H](C)N(C(=O)c2ccccn2)C[C@@H]1C
→ 5.0 | 3.6
26	C[C@@H]1CN([C@@H](C)CO)C(=O)c2cc(NC(=O)CCN3CCOCC3)ccc2O[C@@H]1CN(C)S(=O)(=O)c1ccc(F)cc1
→ 11.5 | 3.9
27	CO[C@H]1CC[C@H]2CCOc3c(C#N)cccc3C(=O)N(C)C[C@H](c3ccccc3)CC(=O)N(C)C[C@@H]1O2
→ 15.3 | 11.7
28	O=C(CN1CCOCC1)NCC[C@@H]1CC[C@H](NS(=O)(=O)c2ccc(Cl)cc2)[C@H](CO)O1
→ -2.0 | 8.2
29	OC[C@@H]1[C@@H](c2ccc(C3=CCCC3)cc2)[C@@H]2CN(CCC(F)(F)F)CCCCN12
→ -14.7 | -12.8
30	CCCC(=O)Nc1ccc2c(c1)OC[C@@H](C)N(C(=O)CC)C[C@@H](C)[C@H](OC)CN(C)C2=O
→ -0.1 | 4.7
31	CCC(=O)NC[C@H]1[C@@H](c2ccc(C3=CCCCC3)cc2)[C@@H](CO)N1C(=O)C1CC1
→ -3.4 | 4.9
32	C[C@@H]1CN([C@H](C)CO)C(=O)Cc2cc(NC(=O)Cc3ccccc3)ccc2O[C@H]1CN(C)Cc1ccc(Oc2ccccc2)cc1
→ ? | .
33	CC(C)NC(=O)Nc1ccc2c(c1)C(=O)N([C@@H](C)CO)C[C@@H](C)[C@H](CN(C)C(=O)c1ccccc1)OCCCC[C@@H](C)O2
→ 18.4 | 5.6
34	Cc1ccc(S(=O)(=O)Nc2ccc3c(c2)CC(=O)N([C@@H](C)CO)C[C@@H](C)[C@@H](CN(C)S(=O)(=O)c2cccs2)O3)cc1
→ -9.0 | -8.7
35	CCCNC(=O)C[C@@H]1CC[C@@H]2[C@H](COC[C@@H](O)CN2C(=O)c2cc(Cl)cc(Cl)c2)O1
→ -9.2 | -2.9
36	C[C@H]1CN([C@@H](C)CO)C(=O)c2ccccc2-c2ccccc2CO[C@@H]1CN(C)C(=O)Nc1ccc(-c2ccccc2)cc1
→ ? | .
37	CCCC#Cc1ccc2c(c1)O[C@H](CN(C)S(=O)(=O)c1cccc(OC)c1)[C@H](C)CN([C@H](C)CO)S2(=O)=O
→ ? | .
38	CCCNC(=O)N1[C@@H](C#N)[C@H](c2ccc(-c3ccc(C(=O)N(C)C)cc3)cc2)[C@@H]1CO
→ 0.5 | -7.4
39	C[C@@H]1CN([C@@H](C)CO)C(=O)Cc2cc(NC(=O)Nc3ccc(F)cc3)ccc2O[C@@H]1CN(C)Cc1ccc2c(c1)OCO2
→ -31.9 | -32.2
40	CO[C@@H]1CN(C)C(=O)c2cc(NS(C)(=O)=O)ccc2OC[C@@H](C)N(CC2CCOCC2)C[C@@H]1C
→ 10.8 | 6.0

The list goes on, starting with the last two of the part before.
The line under a structure holds: Vaccinia inh | Vaccinia inh Venus
39	C[C@@H]1CN([C@@H](C)CO)C(=O)Cc2cc(NC(=O)Nc3ccc(F)cc3)ccc2O[C@@H]1CN(C)Cc1ccc2c(c1)OCO2
→ -31.9 | -32.2
40	CO[C@@H]1CN(C)C(=O)c2cc(NS(C)(=O)=O)ccc2OC[C@@H](C)N(CC2CCOCC2)C[C@@H]1C
→ 10.8 | 6.0
41	COc1ccc(NC(=O)Nc2cccc3c2O[C@@H](CN(C)S(=O)(=O)c2cn(C)cn2)[C@H](C)CN([C@H](C)CO)C3=O)cc1
→ 23.8 | 13.0
42	C[C@@H]1CN([C@@H](C)CO)S(=O)(=O)c2ccc(C#Cc3ccccc3)cc2O[C@H]1CN(C)C(=O)CN(C)C
→ ? | .
43	C[C@@H]1CN([C@H](C)CO)C(=O)Cc2cc(NS(=O)(=O)c3cccs3)ccc2O[C@@H]1CN(C)S(=O)(=O)c1cn(C)cn1
→ 13.8 | 16.2
44	C[C@@H]1CN([C@@H](C)CO)C(=O)Cc2cc(NC(=O)Nc3cccc4ccccc34)ccc2O[C@@H]1CN(C)C(=O)NC1CCCCC1
→ 3.0 | -0.6
45	Cc1cc(C(=O)Nc2cccc3c2O[C@H](CN(C)C)[C@@H](C)CN([C@H](C)CO)C3=O)n(C)n1
→ 8.4 | 7.9
46	N#C[C@H]1[C@@H](c2ccc(C#Cc3ccc(F)cc3)cc2)[C@H](CO)N1C(=O)Nc1ccc(F)cc1
→ -19.7 | -13.9
47	Cc1cccc(-c2ccc([C@H]3[C@@H](CO)N4C(=O)CN(C(=O)NC5CCCCC5)C[C@@H]34)cc2)c1
→ -20.8 | -16.4
48	CO[C@H]1CN(C)C(=O)c2cc(NC(=O)C3CCOCC3)ccc2OC[C@H](C)NC[C@H]1C
→ 7.1 | 5.9
49	O=C(C[C@H]1CC[C@H]2[C@@H](COC[C@H](O)CN2C(=O)c2ccc(F)cc2)O1)N1CCOCC1
→ 15.1 | 25.0
50	COCC(=O)N1C[C@@H](C)[C@H](OC)CN(C)C(=O)c2cc(NC(=O)c3ccc(-c4ccccc4)cc3)ccc2OC[C@H]1C
→ -23.4 | -14.5
51	CCN1[C@H](C(=O)NCc2ccccc2)[C@@H](CO)[C@@H]2Cn3c(ccc(-c4ccncc4)c3=O)[C@@H]21
→ 4.8 | 3.2
52	CCCNC(=O)N(C)C[C@H]1Oc2cc(-c3cncnc3)ccc2S(=O)(=O)N([C@H](C)CO)C[C@H]1C
→ 22.0 | 8.2
53	C[C@H]1CN([C@@H](C)CO)C(=O)Cc2cc(NS(C)(=O)=O)ccc2O[C@H]1CN(C)Cc1ccc(C(F)(F)F)cc1
→ ? | .
54	C[C@H]1CCCCO[C@@H](CN(C)C(=O)C2CCCCC2)[C@@H](C)CN([C@@H](C)CO)C(=O)c2cc(NC(=O)c3ccncc3)ccc2O1
→ -16.0 | -4.0
55	COc1ccc(S(=O)(=O)N(C)C[C@H]2Oc3ccc(NC(=O)Cc4ccccc4)cc3CC(=O)N([C@@H](C)CO)C[C@@H]2C)cc1
→ 14.3 | -1.4
56	C[C@@H]1CCCCO[C@@H](CN(C)C(=O)Cc2ccccc2)[C@@H](C)CN([C@H](C)CO)C(=O)c2cc(NC(=O)Nc3cccc4ccccc34)ccc2O1
→ 14.7 | 5.7
57	C[C@H]1CN([C@@H](C)CO)C(=O)c2cccc(NC(=O)Nc3ccc(F)cc3)c2O[C@H]1CN(C)Cc1ccc(-c2ccccc2)cc1
→ -29.9 | -26.4
58	N#Cc1cccc(-c2ccc(C3[C@@H]4CN(C(=O)C5CCCC5)C[C@H]3N4)cc2)c1 (stereo partly specified)
→ ? | -4.0
59	C[C@@H]1CN([C@H](C)CO)C(=O)c2cccc(NC(=O)c3nc4ccccc4s3)c2O[C@H]1CN(C)Cc1ccc(Cl)c(Cl)c1
→ -4.7 | -3.6
60	CN(C)C(=O)c1cccc(-c2ccc([C@@H]3[C@@H](CO)N4CCCCN(CCC(F)(F)F)C[C@@H]34)cc2)c1
→ 5.4 | -1.4

Entries by screen from the entries so far.
Entries 43–50 in Vaccinia inh Venus: 16.2, -0.6, 7.9, -13.9, -16.4, 5.9, 25.0, -14.5
Entries 43–50 in Vaccinia inh: 13.8, 3.0, 8.4, -19.7, -20.8, 7.1, 15.1, -23.4

Additional results follow.
The line under a structure holds: Vaccinia inh | Vaccinia inh Venus
61	C[C@@H]1CN([C@H](C)CO)C(=O)c2cc(NC(=O)Nc3ccc(C(F)(F)F)cc3)ccc2O[C@@H](C)CCCCO[C@H]1CN(C)C(=O)NC1CCCCC1
→ -13.4 | 4.6
62	COc1ccc2c3c(n(C)c2c1)[C@H](CO)N(C)CC31CCN(S(=O)(=O)c2cccc(F)c2)CC1
→ ? | .
63	CO[C@@H]1CN(C)C(=O)c2ccc(NC(=O)c3ccc(F)cc3)cc2OC[C@H](C)N(C(C)=O)C[C@H]1C
→ -0.2 | -3.0
64	O=C(NCC[C@@H]1CC[C@@H](NC(=O)c2cccnc2)[C@H](CO)O1)Nc1ccc(C(F)(F)F)cc1
→ -8.3 | -0.6
65	COCC#Cc1cnc2c(c1)C(=O)N([C@H](C)CO)C[C@H](C)[C@H](CN(C)Cc1ccccc1)O2
→ 4.5 | 1.3
66	C[C@@H]1CN([C@@H](C)CO)C(=O)c2cc(Br)cnc2O[C@H]1CN(C)C(=O)c1cccc(F)c1
→ 15.8 | 11.8
67	C[C@@H]1CN([C@H](C)CO)C(=O)CCCn2nncc2CO[C@H]1CN(C)C(=O)Cc1ccccc1
→ 16.7 | 3.9
68	COc1ccc(CN(C)C[C@H]2Oc3ccc(NS(=O)(=O)c4ccccc4)cc3CC(=O)N([C@@H](C)CO)C[C@H]2C)cc1
→ -1.5 | -3.2
69	COc1ccc2c3c([nH]c2c1)[C@H](CO)N(Cc1cc(F)ccc1F)CC31CN(C(=O)C2CCC2)C1
→ 0.5 | -0.5
70	COc1ccc(NC(=O)Nc2ccc3c(c2)C(=O)N([C@@H](C)CO)C[C@@H](C)[C@@H](CN(C)C(=O)NC2CCCCC2)OCCCC[C@@H](C)O3)cc1
→ -21.9 | -3.2
71	C[C@@H]1CN([C@H](C)CO)C(=O)c2cccc(NS(=O)(=O)c3cn(C)cn3)c2O[C@@H]1CN(C)Cc1ccc(Oc2ccccc2)cc1
→ 16.5 | 14.3
72	CC=Cc1ccc2n(c1=O)C[C@H]1[C@H](CO)[C@@H](C(=O)NCC3CC3)N(CCC)[C@@H]21 (mixture of isomers)
→ 2.9 | 7.5
73	COc1ccccc1S(=O)(=O)N(C)C[C@@H]1Oc2ncc(-c3ccc(C)cc3)cc2C(=O)N([C@H](C)CO)C[C@@H]1C
→ -31.3 | -19.3
74	C[C@@H]1CCCCO[C@@H](CN(C)C(=O)c2ccccc2)[C@@H](C)CN([C@H](C)CO)C(=O)c2cc(NC(=O)Nc3ccc4c(c3)OCO4)ccc2O1
→ 10.7 | 7.3

Bioassay records: PubChem, Broad Institute
